Screening results as filed in PubChem BioAssay.
AmpC inh no det: inhibitors of E. coli AmpC beta-lactamase without detergent; P00811; AmpC nitrocefin hydrolysis, absorbance 480 nm, no detergent; potencies from a single point are estimates; Potency, µM (top dose mostly 28.7 µM), for the others: top-dose activity change, negative = inhibition; 1.8% of 71,000 active; AID 585; active = falling curve, for most hits resting on a single point; inconclusive = weak or doubtful change; inactive = flat or rising curve; also: % of control where 0% means no effect; about half of the hits show no inhibition at the top dose; a quarter of the inactives give rising signals
Target sequence (P00811 whole entry, looked up): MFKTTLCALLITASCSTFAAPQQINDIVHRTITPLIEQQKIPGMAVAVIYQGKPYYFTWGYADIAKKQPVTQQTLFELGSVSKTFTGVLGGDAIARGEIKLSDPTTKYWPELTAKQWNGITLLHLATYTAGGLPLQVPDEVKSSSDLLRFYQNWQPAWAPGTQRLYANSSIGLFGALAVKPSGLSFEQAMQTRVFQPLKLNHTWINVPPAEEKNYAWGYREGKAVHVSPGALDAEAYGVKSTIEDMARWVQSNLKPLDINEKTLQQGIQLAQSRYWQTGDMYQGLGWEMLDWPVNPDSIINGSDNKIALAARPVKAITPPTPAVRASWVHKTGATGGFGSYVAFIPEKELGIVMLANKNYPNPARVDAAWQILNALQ
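AmpC, 20 mM phosphate pH 7.0; 15 min cpd preinc, RT; start with nitrocefin (800 uM stock); A480 kinetic read, 20 s intervals, 4 min. No-enzyme wells = negative control.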
Numbers without * were called inactive; ? = inconclusive; & = joins results of further samples; [ ] = dose if it differs, or a comment. Potency is read from the fitted curve at half-maximal effect. This is a subset (hit frequency here may not be typical).

SMILES	AmpC inh no det
O=C(c1ccc(S(=O)(=O)N2CCCCC2)cc1)c1nnc(-c2ccc(Cl)cc2)o1	-13%
COc1cc(NC(=O)C2CCCCC2)c(OC)cc1NC(=O)CCC(=O)NCc1ccco1	44%
Cc1ccc(NC(=O)CCSc2nnnn2-c2ccc3c(c2)OCO3)cc1C	-11%
CCC(O)OC(O)CC (stereo unspecified)	-1%&-6%
O=C1COc2ccc(C(=O)NCc3ccco3)cc2N1	-10%
CC1CCc2nc3ccc(S(=O)(=O)N4CCC(C(=O)NC5CCCC5)CC4)cc3c(C(=O)O)c2C1 (stereo unspecified)	7%
CCCCOC(=O)n1c(SCC(=O)N(C)C)nc2ccccc21	102%
O=C(c1ccncc1)N1CCC[C@@]2(CCN(c3ncccn3)C2)C1	-6%
O=C(CCN1C(=O)C2C3C=CC(C3)C2C1=O)NCc1cccnc1 (stereo unspecified)	-5%
CC(C)OCCCNC(=O)c1sc(=S)n(C)c1N	10%
Cc1ccc(-c2nnc(N3CCN(S(C)(=O)=O)CC3)c3ccccc23)cc1	65%
OC(CN1CCN(c2ccccc2)CC1)c1ccc2c(c1)CCN2 (stereo unspecified)	7%
O=C(Nc1cnc2ccccc2c1)c1ccco1	6%
COc1ccc(S(C)(=O)=O)cc1S(C)(=O)=O	6%
CC(=O)N1CCC(N(C(=O)Nc2ccc(C)c(C)c2)C2CCCC2)CC1	45%
O=S(=O)(c1ccc(F)cc1)N1CCC(O)(c2ccc3c(c2)OCO3)CC1	0%
Cc1ccc(C(=O)NCCCN2CCOCC2)cc1N1CCCC1=O	0%
Cc1ccc2nc(-c3ccc(S(=O)(=O)N4CCOCC4)cc3)cn2c1	16%
CCN1CCc2c(sc3c2c(NCc2ccco2)nc2nnnn23)C1	44%
Cc1cc(=O)oc2c(C)c(OCC(=O)N(C)C)ccc12	-8%
Cc1cc(C(=O)COC(=O)CN(C)S(=O)(=O)c2ccc(Cl)cc2)c(C)n1CC1CCCO1 (stereo unspecified)	105%
CCN(CC)c1ccc(C(=O)OCC(=O)c2ccco2)cc1	-6%
CCn1c(=O)c2cc(C(=O)N3CCN(C(=O)c4ccco4)CC3)sc2c2ccccc21	64%
Cc1[nH]nc2c1C1(CCN(C(=O)OCc3ccccc3)CC1)C(C#N)=C(N)O2	-23%
Cc1noc(C)c1S(=O)(=O)N1CCC(C(=O)N2CCN(c3ccccc3Cl)CC2)CC1	81%
NC(=O)COc1ccc(NC(=O)OCc2ccccc2)cc1	-9%
Cn1c(CSc2ncccn2)nnc1SCC(=O)N1CCCc2ccccc21	6%
C=CCOC(=O)C(C#N)c1nc2ccccc2nc1N1CCN(Cc2ccccc2)CC1 (stereo unspecified)	36%
COc1cc2c(cc1OC)C(C)N(C(=O)c1cc3n(n1)C(C(F)(F)F)CC(c1ccco1)N3)CC2 (stereo unspecified)	111%
CC1=C(C(=O)N2CCCCCC2)C2(CCC(C)CC2)OC1=O (stereo unspecified)	44%
CCOc1ccc2nc(NCCNC(=O)Nc3cccc(C)c3)c(C#N)cc2c1	-20%
CC1(C)CC(NC(=O)CCC2CCCC2)CC(C)(C)N1	8%
CCCCOc1cccc(OCCCC)c1C(=O)Nc1cc(C)on1	-10%
Nc1nnc(CCS(=O)(=O)c2cc(Cl)ccc2Cl)s1	-8%
CN1CCN(S(=O)(=O)c2ccc(NC(=O)c3cccc(S(=O)(=O)N4CCCC4)c3)cc2)CC1	84%
CC1CCc2sc3ncn4nc(C(=O)NCc5ccco5)nc4c3c2C1 (stereo unspecified)	27%
CC(=O)Nc1ccc2c(c1)CCC2=O	10%
CC(C)c1cc(C(F)(F)F)nc(NNc2nc(C(C)C)cc(C(F)(F)F)n2)n1	0%[5.75 µM]
O=C(CCN1C(=O)C2C3C=CC(C3)C2C1=O)NC1CCCc2ccccc21 (stereo unspecified)	12%
CCN(CC)C(=O)CSc1nnc(CCCCCNC(=O)OC(C)(C)C)o1	46%
CC1(C)CC(=O)C2=C(C1)OC(c1ccncc1)C(C#N)=C2N (stereo unspecified)	2%
CC1CCCN(c2ccc(C(=O)NCc3cccs3)cn2)C1 (stereo unspecified)	6%
COc1ccc(NC(=O)c2ccc(-c3ccc(-c4noc(C)n4)cc3C)cc2)cc1N1CCN(C)CC1	147%&144%
CC(=O)c1cc(C)oc1C	0%
COC(=O)c1ccc(CSc2nc(-c3ccc(OC)cc3)nc3c2c(=O)n(C)c(=O)n3C)o1	18%
Cc1cc(N)n2ncc(-c3cccc(Br)c3)c2n1	-9%
COc1ccc(-n2c(SC3CCOC3=O)nc3ccccc32)cc1 (stereo unspecified)	51%
CCSc1nnc(NC(=O)C(CC)Oc2ccccc2)s1 (stereo unspecified)	0%
CCN1CCN(c2nc3c(c(=O)[nH]2)CCCC3)CC1	-11%
COc1ccc(N2CCN(C(=O)CC3NC4CCCCC4NC3=O)CC2)cc1 (stereo unspecified)	-7%
CCC(c1nnnn1CCOC)N1CCN(C(=O)c2ccco2)CC1 (stereo unspecified)	-13%
COc1ccc(-c2noc(-c3ccccc3-c3ccccc3)n2)cc1OC	56%
COc1ccc(-c2nnc(SCCC(=O)O)n2-c2ccccc2)cc1	2%
COC(=O)C1=C(C)N=C2SCCC(=O)N2C1/C=C/c1ccccc1 (stereo unspecified)	55%
COc1ccc(CCNC(=O)CN(C)S(=O)(=O)c2cccc3nsnc23)cc1OC	32%
COCCn1c(SCCN2CCCCC2)nc2ccccc2c1=O	11%
CCC(=O)Nc1sc2c(c1C#N)CC(C)(C)NC2(C)C	-1%
CCOCCCn1c(=S)[nH]c2cc3c(cc2c1=O)OCO3	-6%
C=CCn1c(C#N)c(N)sc1=N	-11%
CCCn1c(-c2ccc(F)cc2)nc2c(NCCN3CCOCC3)nc(C)nc21	98%
(continued)
SMILES	AmpC inh no det
CCc1nccn1S(=O)(=O)c1ccc(Br)cc1Br	-4%
COC(=O)CCCNC(=O)CN1CC(c2ccccc2)CC1=O (stereo unspecified)	-9%
Cc1ccc2[nH]c(C(=O)O)c(NC(=O)CN3CCN(c4cccc(C)c4C)CC3)c2c1	-10%
CCc1ccc(N(CC(=O)O)S(=O)(=O)c2c(C)noc2C)cc1	6%
Cn1c([N+](=O)[O-])cnc1COC(N)=O	-5%[12.8 µM]
CCN(CC)C(=O)N1CCC(NC(=O)c2ccccc2)CC1	-20%
Cc1cc(C)cc(N(CC(=O)NCc2ccco2)S(=O)(=O)c2c(C)noc2C)c1	46%
CC(=O)c1cccc(N(CC(=O)NCC2CCCO2)C(=O)CCC(=O)Nc2cc(C)on2)c1 (stereo unspecified)	33%
CCn1c(SCC(=O)c2cc(OC)ccc2OC)nnc1-c1ccncc1	31%
Nc1ccccc1C(=O)OCCc1ccccc1	-5%
COc1ccc2[nH]c3c(c2c1)CCN=C3C	6%[12.8 µM]
COc1ccc(N2CCN(S(=O)(=O)/C=C/c3ccccc3)CC2)cc1	8%
COc1ccc2[nH]c3c(NCCN(C(C)C)C(C)C)ncnc3c2c1	3%
Cc1oc(-c2ccccc2)nc1Cn1cccc1C1=NC(c2ccccc2)CO1 (stereo unspecified)	-3%
NC(=O)N[C@H](CC(=O)O)C(=O)O	14%[5.75 µM]
COc1cc(-c2nc(N)n[nH]2)cc(OC)c1OC	-12%
Cc1nc2ccccc2c(=O)n1-c1cccnc1	-3%
O=C(Cn1c(=O)sc2ccccc21)NCc1ccccn1	6%
CCn1c(=S)sc2c(=O)n(-c3ccccc3)c(SCC(=O)NCc3ccco3)nc21	2%
CC(C)N(Cc1nc(-c2ccc(Cl)cc2)no1)C(=O)CCC1CCCC1	4µM*[single pt active]
COC(=O)c1ccc(-c2nc(-c3cccs3)no2)cc1	4µM*[single pt active]
CCOc1ccc(-c2nnc3ccc(SC)nn23)cc1	7%
CCc1nc2oc3cc(OC)ccc3c(=O)c2c(=O)n1-c1ccccc1	9%
O=C(NCc1ccco1)c1sc(=S)n2c1[nH]c(=O)c1ccccc12	-23%
COc1ccc(CC(=O)NC(C)c2nnc(SCC(=O)Nc3nc(C)cs3)n2C)cc1 (stereo unspecified)	23%
CSc1nc(NCCOCCO)c2sc3nc(-c4ccco4)c4c(c3c2n1)CCC4	32%
CCC(Sc1ccc2nnc(-c3ccc(F)cc3)n2n1)C(=O)O (stereo unspecified)	-15%
CCS(=O)(=O)c1nnnn1-c1ccccc1S(C)(=O)=O	-1%
O=C(CCCCn1c(=O)[nH]c2ccsc2c1=O)NCc1cccnc1	4%
O=C(CCNS(=O)(=O)c1cccc2nonc12)NC1CCCc2ccccc21 (stereo unspecified)	1%
CCOC(=O)c1oc2ccccc2c1NC(=O)c1ccc(S(=O)(=O)N2CCCC2)cc1	30%
O=C(c1ccc(COc2c(F)c(F)cc(F)c2F)o1)N1CCN(c2ccc(Cl)cc2)CC1	20%
CC(C)(C)C1CCC2(CC1)C(C#N)=C(SCC(=O)NC1CCCCC1)NC(=O)C2C#N (stereo unspecified)	-8%
CN(C)S(=O)(=O)c1nc(Cl)c2[nH]cnc2n1	0%[5.75 µM]
Cc1nc(NC(=O)C23CCC(C)(C(=O)O2)C3(C)C)sc1C (stereo unspecified)	8%
Cn1c(SCC(=O)Nc2ccc(F)cc2F)nnc1-c1cccnc1	1%
Cc1ccc(C)c(S(=O)(=O)N2CCN(CC(=O)Nc3cc(C)on3)CC2)c1	30%
COc1cccc(-c2cc(C(F)(F)F)nc(N3CCC(C)CC3)n2)c1	-12%
CN(C)S(=O)(=O)c1ccc(S(=O)(=O)N2CCN(CCC#N)CC2)cc1	11%
COCC(=O)N1CCC2(CCN(Cc3ccccc3OC)CC2)CC1	2%
CC(=O)c1cccc(NC(=O)CN2C(=O)COc3ccc(Cl)cc32)c1	-4%
CCC(C(=O)NCc1ccco1)n1nc(-c2ccc(OC)cc2)ccc1=O (stereo unspecified)	32%
O=C(CSc1nnnn1C1CCCCC1)Nc1ccc2c(c1)OCO2	0%
Cc1ccc(C)n1-c1ccc(C(=O)NCC2CCCO2)cc1 (stereo unspecified)	25%
Cc1ccc(S(=O)(=O)N2CCOCC2)cc1C(=O)NC1CCCCC1	6%
Fc1ccc(C2CC(c3ccccc3)n3ncnc3N2)cc1 (stereo unspecified)	20%
Clc1ccc(OCc2nnc(SCc3nc4ccccc4[nH]3)n2Cc2ccco2)cc1	0%
CC(C)(C)c1ccc(-c2cc(N)n[nH]2)cc1	40%
C1CSC2(N1)C1CC3CC(C1)CC2C3 (stereo unspecified)	-10%
Cc1ccc(C)c(N2CCN(C(=O)c3cc4sccc4n3C)CC2)c1	81%
Cc1ccc(-n2c(CSc3nc(C)cc(C)n3)nnc2SCC(=O)Nc2nccs2)cc1	14%
O=C(COC(=O)CCc1ccc(S(=O)(=O)N2CCOCC2)cc1)Nc1ccc(Cl)cn1	-5%
CC1=CC(=O)C2=C(C)C[C@@H](O)[C@@H]3[C@@H](OC(=O)[C@H]3C)[C@H]12	1%[12.8 µM]
CN1CCN(C(=O)CCn2nc(-c3ccccc3)c3ccccc3c2=O)CC1	34%
COC(=O)c1sc(NC(=O)CSc2nc3cccnc3n2C2CCCCC2)nc1C	83%
Cn1c(=O)c2c(O)cc(=O)n(-c3ccccc3)c2n(C)c1=O	-8%
Cc1cc2ncn(C(=O)c3ccc4c(c3)OCO4)c2cc1C	3%
Cc1ccc(C)c(CSc2nnc(-c3cccnc3)n2N)c1	?
CC1CN(CCc2ccccc2)c2nc3c(c(=O)[nH]c(=O)n3C)n2C1 (stereo unspecified)	25%
CCC[C@@H]1C[C@@]1(CCC)[C@@H](NC(=O)Oc1ccccc1)c1ccc(C(=O)OC)cc1	-6%
Cc1oc(-c2cccc(Cl)c2)nc1CN1CCC(C(=O)NCc2ccco2)CC1	77%
